From PubChem BioAssay
Rango complex inh = prevents formation of the Rango-importin beta complex; 0.031% of 340,000 active; Potency, µM (titrated, usually from 92.2 µM), inactives show at the highest dose inhibition of complex formation; Rango CFP/YFP FRET sensor + importin beta, 45 min; Q14974; active = rising FRET ratio curve, often small or poorly fitted; inconclusive = mostly compound fluorescence or quenching in the first reads; inactive = flat curves in all reads;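 note: potency is the fitted concentration of half-maximal effect; 0% = DMSO wells and 100% = buffer wells lacking importin beta; nearly all actives have a fitted effect of over 15% in size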
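Inhibition scored from the CFP 486 nm/YFP 530 nm FRET ratio 45 min after adding 0.125 microM importin beta to 50 nM Rango biosensor preincubated 5 min with compound (room temperature, PBS with DTT, Tween-20, BSA). No-importin wells as positive control.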
miR-21 FLuc = miR-21 reporter, rising signal; 340,000 tested, under 10 active; HeLa miR-21 FLuc reporter, luciferase, 48 h; Potency, µM (titrated, usually from 38.3 µM), for inactives: top-dose reporter change, positive = more light; active = well fitted rising curve with a large enough effect; inconclusive = small, poorly fitted or top-dose-only effect; inactive = no such curve, though single readings can be large or run the other way;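 note: % of control where 0% means no effect; miR-21 action dims this reporter so a rising signal means less miR-21 action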
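HeLa cells stably expressing CMV-driven firefly luciferase with a downstream miR-21 binding sequence, endogenously expressing miR-21, were treated with titrations (up to about 40uM final) for 48 hours at 37 degree Celsius. Luciferase luminescence was read after lysis.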
Rango dissoc inh = inhibition of RanGTP-driven Rango-importin beta dissociation; O95149+P62826; Biochemical FRET Rango-importin beta, RanGTP-induced dissociation; Potency, µM (series often up to 46.1 µM), inactives show at the top dose activity change, negative = inhibition; 0.071% of 340,000 active; AID 540253; active means falling FRET ratio curve, often poorly fitted, with flat reads before Ran was added; inconclusive means other falling curves, or compound fluorescence or quenching; inactive means flat or rising ratio curve;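 note: potency is the fitted concentration of half-maximal effect; % of control where 0% means no effect; nearly all actives have a fitted effect of over 45% in size; -100% = wells without RanGTP and RCC1; the record marks most hits as doubtful in a second field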
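Recombinant Rango FRET biosensor (EYFP–snurportin 1 IBB–cerulean CFP10) at 0.1 uM premixed with 0.25 uM importin beta in PBS, 1 mM DTT, 0.02% Tween-20, 0.1% BSA. Compound added 5 min; RanGTP-RCC1 (0.6 uM Ran, 2 mM GTP, 0.2 uM RCC1) then triggers release, read at 45 min.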
GLA inh pH 4.5 = alpha-galactosidase A (human) inhibition, pH 4.5; P06280; purified enzyme, 4-MU-alpha-Gal fluorescence, pH 4.5; activity change, negative = inhibition, % at 105 µM; 230,000 tested, under 10 active; AID 1467; inconclusive = small, poorly fitted or top-dose-only inhibition, or a rising curve; inactive = flat fitted curve, though single readings scatter; no compound was filed as active;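 note: 0% = full activity with enzyme and -100% = basal without enzyme; dose as in the result columns while the protocol names 77 µM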
Target sequence (P06280 whole entry, looked up): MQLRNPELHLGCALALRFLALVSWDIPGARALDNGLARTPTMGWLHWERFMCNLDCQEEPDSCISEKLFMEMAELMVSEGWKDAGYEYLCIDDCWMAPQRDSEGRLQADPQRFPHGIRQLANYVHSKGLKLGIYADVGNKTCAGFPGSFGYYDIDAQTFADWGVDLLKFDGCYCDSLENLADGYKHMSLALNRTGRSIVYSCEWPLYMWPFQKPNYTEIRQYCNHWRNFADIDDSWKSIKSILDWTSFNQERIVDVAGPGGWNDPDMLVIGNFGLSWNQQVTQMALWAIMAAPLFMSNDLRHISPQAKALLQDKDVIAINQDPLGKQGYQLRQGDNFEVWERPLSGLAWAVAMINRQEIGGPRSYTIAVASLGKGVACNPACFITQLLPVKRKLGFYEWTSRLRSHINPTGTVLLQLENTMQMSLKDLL
An asterisk follows results filed as active; ? = inconclusive; . = no result given; & = joins results of further samples. Only part of the results is shown; rates above refer to the full screens.

| cpd | GLA inh pH 4.5 | miR-21 FLuc | smiles | Rango complex inh | Rango dissoc inh |
| --- | --- | --- | --- | --- | --- |
| 1 | 5.0 | -26.5% | CCS(=O)(=O)N1Cc2ccccc2CC1C(=O)Nc1nc2ccc(C)cc2s1 (stereo not given) | -3.0% | -4.5% |
| 2 | . | -43.0% | O=C(c1cc(COc2cccc(C(F)(F)F)c2)on1)N1C[C@H]2CC[C@H]1C2 | 0.4% | -7.9% |
| 3 | . | 11.1% | CN(CC(=O)Nc1ccc(F)cc1)C(=O)c1ccc(-c2ccc(Cl)cc2)o1 | 0.3% | 1.8% |
| 4 | . | 0.9% | COc1cccc(N2C(=NC(=O)CCC3CCCC3)SC3CS(=O)(=O)CC32)c1 (stereo not given) | -1.3% | -3.0% |
| 5 | -2.3 | -7.6% | Cn1c(SCC(N)=O)nnc1C1CCN(C(=O)NC2CCCCC2)CC1 | -0.1% | -13.8% |
| 6 | . | -1.6% | CCOc1ccc(S(=O)(=O)N2CCCC(C(=O)NC3CCCC3)C2)cc1 (stereo not given) | -0.7% | 9.9% |
| 7 | 5.1 | -4.4% | CCN(C(=S)NCCOC)c1cccc2ccccc12 | -4.6% | 29.5% |
| 8 | . | 1.7% | COc1cc(OC)cc(Oc2ccc(S(=O)(=O)N3CCCCC3)cc2[N+](=O)[O-])c1 | 0.6% | -3.5% |
| 9 | . | . | Cc1ccc(S(=O)(=O)CCC(=O)OCC(=O)N(C)Cc2ccccc2)cc1 | 0.5% | 8.2% |
| 10 | -0.5 | 17.4% | O=C1CC(N2CCN(c3ccccn3)CC2)C(=O)N1CC(c1ccccc1)c1ccccc1 (stereo not given) | 4.8% | -9.2% |
| 11 | 2.1 | -13.4% | Cc1ccc(S(=O)(=O)NCC(=O)N(CC(=O)NC2CCCC2)c2ccc3c(c2)OCCO3)cc1 | 2.2% | 1.6% |
| 12 | -2.6 | -14.7% | CCn1cc(C(=O)N(CCCN2CCOCC2)Cc2ccco2)c(=O)c2ccc(C)nc21 | -2.5% | 1.8% |
| 13 | . | 0.1% | O=C1CN(c2ccc(F)cc2)C(=S)N1c1ccccc1 | 5.1% | -15.6% |
| 14 | -0.2 | -15.3% | O=C(Nc1ccc2nsnc2c1)c1cccs1 | ? | ? |
| 15 | -7.7 | -17.7% | N#Cc1c(C(F)(F)F)cc(-c2ccco2)nc1SCc1ccccn1 | 36.6µM* | -12.8% |
| 16 | 5.3 | -17.6% | O=C(N/N=C/c1ccncc1)c1nn(Cc2ccccc2)c(=O)c2ccccc12 | -0.4% | -15.2% |
| 17 | 4.8 | 0.2% | O=C(CSc1nnc2ccccn12)NNC(=O)c1ccc(F)cc1 | -1.6% | 4.3% |
| 18 | . | 7.0% | COc1ccc(OC)c(Nc2nc(-c3ccncc3)nc3ccccc23)c1 | -2.1% | -8.0% |
| 19 | -1.0 | 15.1% | CCOc1ccc(-c2cc(C(=O)NCC3CCCO3)c3ccccc3n2)cc1 (stereo not given) | 6.2% | 1.0% |
| 20 | -4.1 | -14.2% | Cc1ccc(-n2[nH]c(C)c(C=NC34CN5CN(CN(C5)C3)C4)c2=O)cc1C | 0.0% | 0.4% |
| 21 | -4.6 | 10.3% | CCOC(=O)c1ccc(NC(=O)CSc2nnc(CNC(=O)c3ccccc3F)o2)cc1 | 0.1% | 24.1% |
| 22 | . | . | O=C(CN1C(=O)NC2(CCCCC2)C1=O)Nc1ccc2[nH]c(=O)[nH]c2c1 | 0.0% | -11.4% |
| 23 | . | -0.4% | Cc1nn(C)c(C)c1CCC(=O)N1CCCC(Nc2ccc(C(C)C)cc2)C1 (stereo not given) | 2.8% | 3.6% |
| 24 | 6.7 | 11.2% | CCC(C)(C(=O)NC1CCCC1)N(Cc1cccs1)C(=O)Cc1cccs1 (stereo not given) | 0.3% | -5.9% |
| 25 | -2.2 | -16.0% | COc1ccc(CNCc2cc3c(C(C)(C)C)nn(-c4ccccc4)c3[nH]c2=O)cc1 | 1.8% | -4.2% |
| 26 | -11.9 | 24.7% | Cc1ccc(C)c(S(=O)(=O)N2CCN(Cc3ccc(O)c4ncccc34)CC2)c1 | 4.1% | -6.3% |
| 27 | 8.2&-7.2&3.7&-0.9&5.7 | -2.1% | CN1CCN(CC(=O)N2c3ccccc3C(=O)Nc3cccnc32)CC1 | . | . |
| 28 | . | -38.6% | O=C(Nc1cccc(Cl)c1)c1ccc2ncsc2c1 | 1.8% | -14.0% |
| 29 | 2.2 | -1.5% | O=S(=O)(NCc1cn2ccsc2n1)c1ccc2c(c1)OCCO2 | -1.1% | -3.0% |
| 30 | 0.5 | -0.9% | O=S(=O)(Cc1cnc(Cl)s1)c1ccccc1 | -0.2% | 6.7% |
| 31 | 1.1 | -12.9% | N#Cc1ccc(OCC(=O)N/N=C2\CCc3ccccc32)cc1 | -5.0% | -12.0% |
| 32 | -2.7 | -4.4% | Cc1csc(SCC(=O)N2CCN(S(=O)(=O)c3ccccc3)CC2)n1 | 0.5% | -8.3% |
| 33 | . | . | O=C(c1cc(=O)[nH]c2ccccc12)N(Cc1nnc(-c2ccccc2Cl)o1)C1CC1 | -1.0% | 0.9% |
| 34 | . | . | C=C(c1ccc2nc(NC(=O)OC)[nH]c2c1)c1cccs1 | 0.7% | 2.2% |
| 35 | -2.9 | 1.0% | NS(=O)(=O)c1ccc(NC(=S)Nc2ccc(S(=O)(=O)N3CCCC3)cc2)cc1 | 6.5% | 21.4% |
| 36 | -16.6 | -23.8% | CCCc1ccc(-c2cc(NC(=O)CSc3nnc(N)s3)n(-c3ccccc3)n2)cc1 | -1.7% | -3.2% |
| 37 | . | . | O=C(Nc1ccccc1N1CCCCC1)c1ccc(F)c(S(=O)(=O)N2CCOCC2)c1 | -2.2% | 3.4% |
| 38 | . | . | [O-][n+]1cccc2cccc(O)c21 | 1.5% | 5.0% |
| 39 | -1.5 | 12.9% | O=C(NCCCN1CCOCC1)c1ccc(CSc2ccc(Cl)cc2)cc1 | 0.0% | -3.8% |
| 40 | 4.9 | 3.0% | CCOC(=O)N1CCN(C(=O)c2ccc3c(=O)n(-c4cc(OC)ccc4OC)c(=S)[nH]c3c2)CC1 | -1.1% | 0.4% |
| 41 | 3.3 | -1.0% | O=C1OCCC1Sc1nnc(-c2ccccc2Cl)n1Cc1ccccc1 (stereo not given) | 5.4% | 6.9% |
| 42 | . | . | Cc1ccc(-n2c(SCC(=O)N3CCN(c4ccccn4)CC3)nnc2N2CCCC2)cc1 | 0.3% | 1.1% |
| 43 | 4.1 | -46.4% | CN1CCC(C2(O)c3ccccc3CCc3ccccc32)CC1 | 0.0% | 18.8% |
| 44 | . | -0.3% | CS(=O)(=O)N1CCCC(C(=O)Nc2ccc(F)cc2)C1 (stereo not given) | 1.8% | 7.0% |
| 45 | 8.8 | -1.3% | COc1cccc(CC2(CO)CCCN(Cc3ccc(CN4CCCCC4)s3)C2)c1 (stereo not given) | 0.6% | 17.1% |
| 46 | . | -2.1% | O=C(CN1CCCC1)NCc1ccccc1 | -5.7% | -10.5% |
| 47 | . | -42.1% | O=C(Nc1nc2ccccc2[nH]1)c1cc(F)cc(F)c1 | -4.6% | 5.8% |
| 48 | -7.8 | -1.0% | CCNc1nc(NCC)n2c(SCC(=O)N3CC4(C)CC3CC(C)(C)C4)nnc2n1 (stereo not given) | 1.3% | -0.6% |
| 49 | 3.5 | -21.2% | CC(C)(C)c1ccc(OCCOCCn2cnc3ccccc3c2=O)cc1 | -1.6% | -5.0% |
| 50 | 2.1 | -20.1% | Cc1cccc(Nc2nnc(SCC(=O)NCc3cccs3)s2)c1 | -0.2% | -2.9% |
| 51 | 10.3&-0.8&-0.6 | 0.9%&-12.9% | CC(C(=O)O)c1ccc(-c2ccccc2)c(F)c1 (stereo not given) | -1.4%&-1.8% | 17.2%&0.8% |
| 52 | -3.3 | 1.2% | Cc1cccc(N=C2NN=C(c3ccc4c(c3)OCCO4)CS2)c1 | 2.5% | 9.1% |
| 53 | . | . | COc1ccccc1CNC(=O)CN1NS(=O)(=O)c2ccccc2C1=O | 0.7% | -9.4% |
| 54 | 2.7 | -2.0% | Cc1onc(-c2ccccc2)c1C(=O)N/N=C/c1cc2c(cc1Br)OCO2 | -0.8% | 12.0% |
| 55 | . | 1.5% | Cc1ncc([N+](=O)[O-])n1CC(=O)Nc1ccc(Br)cc1 | -1.8% | -0.6% |
| 56 | . | -1.5% | CC(=O)c1ccc(NC(=O)NC2CCCc3ccccc32)cc1 (stereo not given) | -4.0% | 7.0% |

(continued)
| cpd | GLA inh pH 4.5 | miR-21 FLuc | smiles | Rango complex inh | Rango dissoc inh |
| --- | --- | --- | --- | --- | --- |
| 57 | -8.2 | -7.3% | CC(NC(=O)COC(=O)CC(c1ccccc1)c1ccccc1)c1ccccc1 (stereo not given) | 5.5% | -8.2% |
| 58 | -1.8 | -4.8% | Cc1ccc2c(-c3ccc([N+](=O)[O-])cc3)cc(=O)[nH]c2c1 | 5.1% | 13.3% |
| 59 | . | 9.5% | COc1cccc(/C=C2\SC(=O)N(CCC(=O)N3CCCCC3CCO)C2=O)c1 (stereo not given) | 0.5% | 7.1% |
| 60 | -3.7 | -13.3% | Cc1cc2nc3c(nc2cc1C)C1(C(=O)N(C)C)CCC3(C)C1(C)C (stereo not given) | ? | ? |
| 61 | -4.3 | -13.1% | CC1(C)CC(=O)C=C(Nc2ccc3c(c2)OCCO3)C1 | -1.0% | -0.1% |
| 62 | . | . | O=C(COc1ccccc1Br)Nc1ccc(S(=O)(=O)N2CCCC2)cc1 | -3.0% | -0.8% |
| 63 | 3.6 | -7.8% | O=C(COc1ccc(Cl)cc1)NCCSCc1cccc(Cl)c1 | 1.3% | -8.9% |
| 64 | . | . | CC1=CC(C)(C)NC(=S)N1c1cccc(Cl)c1 | -0.3% | 0.1% |
| 65 | 0.0 | -5.9% | Cc1nc(NC(=O)/C=C/c2ccccc2)sc1C(=O)Nc1cccc(Cl)c1 | 0.3% | -7.2% |
| 66 | 8.0 | -1.4% | Cc1cc(OCC(=O)Nc2ccc(N3CCCC3)cc2)cc(C)c1Cl | -0.9% | -6.3% |
| 67 | . | . | O=C(Nc1ccc(F)cc1)c1ccccc1NC(=O)C1CCCCC1C(=O)O (stereo not given) | -3.9% | -19.5% |
| 68 | . | 0.6% | O=Cc1ccc(OCCN2CCCC2=O)cc1 | -0.9% | -13.4% |
| 69 | 2.9 | -3.0% | O=C(NCC1CCCO1)C1CCN(C2CCN(CCCC3CCCC3)CC2)CC1 (stereo not given) | -3.1% | -6.4% |
